SARS PLP yeast: inhibitors of SARS-CoV papain-like protease in yeast | S. cerevisiae expressing SARS-CoV PLpro, growth rescue; control for the full effect not named in the record | Potency, µM (series often up to 32.9 µM), for the others: at the top dose activity, positive = growth rescue | 330,000 compounds, 0.19% hits; active means well fitted rising curve with a large enough effect; inconclusive means small, poorly fitted or top-dose-only effect; inactive means no such curve, though single readings can be large or run the other way; note: 0% is about no effect; nearly all actives have a fitted effect of over 55% in size; growth read by luminescence after 48 h
Cruzain noTriton: cruzain (T. cruzi) inhibition without detergent. Potency, µM, without a hit: max response, negative = inhibition, most hits filed as inhibitors. 200,000 compounds, 2.3% hits. purified cruzain, Z-FR-AMC fluorescence, no detergent;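 note: plate controls were enzyme without inhibitor for no effect and buffer without enzyme for full effect; nearly all actives have a fitted effect of over 40% in size; top concentration of the series not given in the record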
Target sequence (P25779 123-467 limits assumed): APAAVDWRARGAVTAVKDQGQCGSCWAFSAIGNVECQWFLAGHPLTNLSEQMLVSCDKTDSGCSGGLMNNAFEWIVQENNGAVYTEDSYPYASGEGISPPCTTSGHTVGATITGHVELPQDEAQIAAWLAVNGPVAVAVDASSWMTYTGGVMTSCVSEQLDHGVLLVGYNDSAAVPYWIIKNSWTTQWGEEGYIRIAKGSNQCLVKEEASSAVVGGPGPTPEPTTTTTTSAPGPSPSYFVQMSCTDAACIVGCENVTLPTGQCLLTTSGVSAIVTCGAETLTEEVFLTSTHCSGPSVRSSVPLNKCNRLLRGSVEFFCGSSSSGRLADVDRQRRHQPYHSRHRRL
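Detergent-free condition (0.00005% Triton X-100) in acetate buffer pH 5.5 with DTT. 1.5 nM enzyme and compound were pre-mixed 15 min, then 2 uM Z-FR-AMC substrate added; reaction progress from fluorescence change between first and third reads (60 s).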
2A StopGo: lowers the luciferase signal of an FMDV 2A StopGo reporter | human cells with a luciferase reporter of 2A StopGo recoding; control for the full effect not named in the record | AID 1159524 | Potency, µM (top dose mostly 57.9 µM), inactives show top-dose signal change, negative = less light | 410,000 compounds, 1.2% hits; active = well fitted falling curve with a large enough effect; inconclusive = small, poorly fitted or top-dose-only effect; inactive = no such curve, though single readings can be large or run the other way; tested in HEK293T cells; note: % is set by controls: 0 for no effect and ±100 for the full control effect; nearly all actives have a fitted effect of over 45% in size; luciferase light after 4 h
NS1 function inh: blocks influenza NS1 protein function; 270,000 compounds, 0.4% hits; AID 2326; Potency, µM (doses to about 46.1 µM), inactives show at the highest dose activity, positive = more growth; S. cerevisiae slowed by influenza A NS1, growth recovery by OD600; active means well fitted rising curve with a large enough effect; inconclusive means small, poorly fitted or top-dose-only effect; inactive means no such curve, though single readings can be large or run the other way; note: nearly all actives have a fitted effect of over 50% in size
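Recovery from NS1-induced slow growth read by OD600 in budding yeast switched to galactose assay medium (pH 6.0, -URA) at 1:100 dilution. Compound 23 nl per well; the matching strain lacking NS1 serves as control.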
RE007 growth inh: less growth of the S. pombe RE007 Vpr strain; S. pombe RE007 Vpr strain, BacTiter-Glo ATP luminescence, 24 h; control for the full effect not named in the record; Potency, µM (highest dose often 92.2 µM), without a hit: at the top dose activity change, negative = less growth; 360,000 compounds, 0.21% hits; AID 651644; active = well fitted falling curve with a large enough effect; inconclusive = small, poorly fitted or top-dose-only effect; inactive = no such curve, though single readings can be large or run the other way;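 note: % is set by controls: 0 for no effect and ±100 for the full control effect; nearly all actives have a fitted effect of over 50% in size; the assay follows cell death caused by Vpr and the record does not say whether a fall means rescue or toxicity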
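Fission yeast strain RE007, carrying one chromosomally integrated HIV-1 vpr copy, was seeded at OD 0.01 in PMG+AL medium with 23 nL pinned compound. After 24 h at 30 °C and 99% humidity, viability was read by BacTiter-Glo luminescence.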
Cruzain inh Det: cruzain (T. cruzi) inhibition with detergent. 200,000 compounds, 0.43% hits. purified cruzain, Z-FR-AMC fluorescence, 0.01% Triton. P25779. Potency, µM, for inactives: max response, negative = inhibition, hits mostly inhibitors;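 note: plate controls were neutral wells for no effect and buffer without enzyme for full effect; nearly all actives have a fitted effect of over 40% in size; top concentration of the series not given in the record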
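Cysteine protease activity tested under reducing, mildly acidic conditions (100 mM sodium acetate pH 5.5, 5 mM DTT) plus 0.01% Triton X-100. Cruzain 1.5 nM; substrate Z-FR-AMC 2 uM; 15 min compound preincubation at room temperature.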
Marburg entry inh: blocks Marburg virus binding to or entry into cells | 300,000 compounds, 1.8% hits | Marburg virus pseudotyped entry inhibition, cell reporter; control for the full effect not named in the record; about a third of the inactives were read at about 46 µM | AID 540276 | Potency, µM (doses to about 37.8 µM), for the others: at the top dose activity change, negative = inhibition, actives largely listed as inhibitors; active = well fitted inhibition curve with a large enough effect; inconclusive = small, poorly fitted or top-dose-only effect, or effect the other way; inactive = flat fitted curve, though single readings scatter; tested in HEK293 cells; about a fifth of its hits are not listed in these tables; note: % is set by controls: 0 for no effect and ±100 for the full control effect; luciferase read-out
Lassa entry inh: Lassa virus entry inhibition; Lassa virus pseudotype entry inhibition, cell reporter; control for the full effect not named in the record; Potency, µM (top dose mostly 37.9 µM), for inactives: top-dose activity change, negative = inhibition, most hits filed as inhibitors; 300,000 compounds, 1.2% hits; active means well fitted inhibition curve with a large enough effect; inconclusive means small, poorly fitted or top-dose-only effect, or effect the other way; inactive means flat fitted curve, though single readings scatter; tested in HEK293 cells; note: % is set by controls: 0 for no effect and ±100 for the full control effect; nearly all actives have a fitted effect of over 50% in size; luciferase read-out
* = called active by the depositor; ? = inconclusive; . = no result given; & = joins results of further samples; [ ] = dose if it differs, or a comment. Unless noted, calls come from the whole dose curve; as a rule, active = well fitted curve in the direction sought with a large enough effect; inconclusive = small, poorly fitted or top-dose-only effect, or another doubt; inactive = no such curve, though single readings can be large; an effect the other way counts as inactive or inconclusive. Potency is the fitted concentration of half-maximal effect.

SMILES	SARS PLP yeast	Cruzain noTriton	2A StopGo	NS1 function inh	RE007 growth inh	Cruzain inh Det	Marburg entry inh	Lassa entry inh
CCc1c(C(C)S(=O)(=O)c2ccc(C)cc2)[nH]c(=O)n1-c1ccc(C)cc1 (centres undefined)	-9%	3%	-7%	2%	-2%	-3.0%	6%	0%
Cc1ccc(S(=O)(=O)N2CCC(C(=O)NCCCN3CCOCC3)CC2)cc1	1%	.	-25%	.	1%	.	14%	?
Fc1ccccc1NC(=S)NCc1ccc2c(c1)OCO2	-23%	9%	6%	7%	-5%	-3.3%	?	-3%
CCc1cc2c(N3CCN(c4ccccc4)CC3)ncnc2s1	-12%	5%	25µM*	-20%	-24%	3.1%	?	?
CCOc1ccccc1N=C1SCCCN1C	-12%	-8%	-23%	2%	-22%	1.6%	28%	34%
CN(C)S(=O)(=O)N1CCCN(S(=O)(=O)N(C)C)CC1	4%	-3%	10%	5%	4%	-3.5%	17%	14%
CC(C)(C)C(=O)NC(=S)NNC(=O)c1sc2ccccc2c1Cl	-93%	-10%	?	-15%	1%	1.4%	?	?
COc1ccc(CCN2C(=O)N[C@@H](C(C)C)C2=O)cc1	-2%	.	-19%	-2%	0%	.	.	.
Cc1nn(C)c(=S)n1-c1ccc(Cl)cc1	0%	.	4%	3%	-1%	.	.	.
CCOC(=O)c1c(CN2CCN(Cc3ccccc3)CC2)n(C)c2cc(Br)c(OC)cc12	6%	1%	?	-1%	-1%	-5.8%	26%	-1%
COc1ccc(-c2nc(C)c(CCNC(=O)c3cc(OC)c(OC)c(OC)c3)s2)cc1OC	.	?	-7%	.	.	-6.4%	.	-27%[46.1 µM]
CC(=O)C1=C(O)C(=O)N(c2ccc(C)cc2)C1c1ccccn1 (centres undefined)	7%	-18%	-16%	9%	-3%	-4.5%	15%[46.1 µM]	24%
Cc1ccc(NC(=O)C2CCCN(S(=O)(=O)c3cccs3)C2)cc1 (centres undefined)	1%	0%	?	0%	1%	-0.1%	?	?
COc1ccc(-n2nnc3c(=O)n(CC(=O)Nc4ccc5c(c4)OCCO5)cnc32)cc1OC	-7%	.	-26%	1%	7%	.	0%	-11%
CCNc1nc(C)c(CN(C(C)=O)c2ccccc2)nc1C#N	-17%	10%	-2%	-16%	-17%	0.3%	2%	8%
CCCCN(CC)S(=O)(=O)c1ccc(C(=O)Nc2nnc(-c3cccs3)o2)cc1	1%	6%	-18%	-38%	7%	2.9%	8.9µM*	?
O=C(OCc1ccccc1)c1cn(-c2ccccc2)nc1-c1ccncc1	-34%	4%	21%	-8%	5%[3.69 µM]	-2.6%	-28%	-1%
O=C1CC(c2nc3ccccc3n2CCCCOc2ccccc2)CN1c1ccccc1Cl (centres undefined)	.	?	0%	.	.	-14%	-1%[46.1 µM]	?
CCCn1c(N)c(N(CCOC)C(=O)c2cc(C)cc(C)c2)c(=O)[nH]c1=O	1%	.	2%	-1%	1%	.	0%[46.1 µM]	17%[46.1 µM]
COc1ccc(CCN(C)CC(O)COc2ccc(C(C)=O)cc2OC)cc1OC (centres undefined)	1%	.	0%	7%	-9%	.	2%[46.1 µM]	3%[46.1 µM]
CC(Oc1ccc2cc(-c3ccccc3)c(=O)oc2c1)C(=O)NCC1CCC(C(=O)O)CC1 (centres undefined)	1%	.	1%	17%	6%	.	.	.
Cc1nn(-c2ccccc2)c(-n2cccc2)c1C(=O)NCCc1ccc(Cl)cc1	.	-4%	?	.	.	-7.4%	-31%[46.1 µM]	-7%[46.1 µM]
NC(=O)c1ccc(C(=O)Nc2ccc([As](=O)(O)O)cc2)cc1	3%	2%	.	-5%&3%	.	1.8%	.	.
Clc1ccc(N2N=C(c3cccs3)CC2c2ccco2)cc1 (centres undefined)	-5%	?	-24%	2%	-6%	-3.3%	-3%[46.1 µM]	20%
CCCC[C@@H]1CNC(=S)N1CCC12CC3CC(CC(C3)C1)C2	1%	.	9%	1%	10%	.	.	.
Cc1ccc(S(N)(=O)=O)cc1NC(=O)C(c1ccccc1)c1ccccc1	-1%	.	4%	1%	-8%	.	-16%[46.1 µM]	-9%[46.1 µM]
CC(C)=CC(=O)Nc1nnc(C)s1	8%	-11%	20%	1%	21%	1.0%	11%	12%
CC1(C)O[C@H]2[C@@H](O1)[C@@H](C(=O)Nc1ccc(F)c(F)c1)O[C@@H]1OC(C)(C)O[C@@H]12	.	7%	-4%	.	.	-2.4%	2%[46.1 µM]	?
Cc1cc(=O)n2c(ccc3ccccc32)c1C#N	3%	?	-2%	-6%	0%	-1.5%	-15%	6%
Cc1ccc(S(=O)(=O)N(C)C)cc1NC(=O)c1sccc1Cl	-1%	.	-21%	-5%	-8%	.	2%[46.1 µM]	1%[46.1 µM]
COc1cc(C(=O)N[C@H](C(=O)NC2CCCc3ccccc32)C(C)C)cc(OC)c1OC (some centres undefined)	-10%	.	-17%	.	2%	.	?	-26%
CC(NC(=O)CN(c1ccc(Cl)cc1)S(C)(=O)=O)c1ccccc1 (centres undefined)	0%	.	-2%	9%	-18%	.	?	?
COc1ccccc1CNC(=O)CN1C(=O)C(C)N(c2ccc(C)cc2)C1=O (centres undefined)	-4%	3%	-4%	-9%	3%	6.4%	-8%	-6%
Cc1ccc(C(O)P(=O)(OCc2ccccc2)c2ccc(N(C)C)cc2)cc1 (centres undefined)	-6%	.	25%	-8%	-10%	.	.	.
CCOC(=O)N1CCN(C(=O)Nc2ccc(NC(=O)N3CCN(C(=O)OCC)CC3)cc2)CC1	0%	.	-5%	-3%	0%	.	18%[46.1 µM]	-5%
COc1cccc(NC(=O)CSc2nnc(-c3ccco3)c(-c3ccco3)n2)c1	-4%	.	-8%	14%	7%	.	-11%	-9%
O=C(NCCCN1CCCC1=O)c1ccc2c(c1)NC(=O)c1ccccc1S2	3%	6%	-20%	5%	8%	6.5%	.	.
CCn1c(C)cc(/C=C2/NC(=O)N(CC(=O)Nc3cccc(C)c3)C2=O)c1C	26%	?	-11%	11%	12%	-4.9%	-2%	4%
COC(C)(C)[C@]12CC(O)(c3ccccc3)ON1[C@H]1CCCCC1N2O (some centres undefined)	7%	-1%	-14%	6%	-6%	7.4%	-19%	4%
Cc1c(C(=O)OCC(=O)NCCN2C(=O)CSC2=O)oc2c1ccc1ccccc12	13%	?	?	8%	.	-7.2%	3%	3%
CCCCCNC(=O)C(C)NS(=O)(=O)c1ccc(OC)cc1 (centres undefined)	.	8%	10%	5%	4%	0.1%	29%	11%
COCCNC(=O)C1CCCN(c2ncccn2)C1 (centres undefined)	5%	-3%	14%	-3%	-10%	2.6%	5%	-3%
COc1ccc(OC(=O)c2cccnc2)cc1	-5%	-20%	-8%	-4%	-5%	-7.9%	0%[46.1 µM]	0%
COc1ccc(C2=NS(=O)(=O)N(C)C(C(=O)N3CCC4(CC3)OCCO4)=C2)cc1OC	12%	.	-20%	8%	5%	.	.	.
O=C(O)C12C3CCCC1C32c1ccccc1 (centres undefined)	-2%	-14%	1%	1%	-7%	2.5%	3%	-1%
O=C(COC(=O)c1ccccn1)Nc1ccccc1Cl	0%	-7%	-19%	-11%	4%	2.8%	8%	-22%
Cc1ccc(OCC(=O)Oc2cccc(C)c2C)cc1	-7%	.	-4%	-3%	4%	.	.	.
COc1ccccc1CC(=O)NC1CCN(Cc2ccccc2)CC1	1%	.	?	2%	-2%	.	-6%	.
Cc1ccc(C)c(NC(=O)CN2C(=O)c3cccc4cccc2c34)c1	.	4%	1%	.	.	-1.2%	1%[46.1 µM]	5%[46.1 µM]
CCC(C)Sc1nc2c(cnn2-c2ccccc2)c(=O)[nH]1 (centres undefined)	-15%	5%	0%	0%	-6%	2.1%	8%	?
Cc1cc2cc(C(c3nnnn3C(C)(C)C)N(Cc3ccco3)CC3CCCO3)c(=O)[nH]c2cc1C (centres undefined)	3%	13%	-3%	15%	-5%[3.69 µM]	-5.4%	?	-4%
CCCC(=O)Nc1ccccc1-c1nnc(SCC)[nH]c1=O	-6%	.	-24%	-1%	-5%	.	.	.
Cc1sc2ncn(CC(=O)NCCCC(=O)N3CCN(c4ccccc4)CC3)c(=O)c2c1C	-18%	?	?	0%	5%	2.8%	-2%[46.1 µM]	-2%
CSc1cccc(NC(=O)C2CCN(S(=O)(=O)c3ccc4c(c3)NC(=O)CO4)CC2)c1	3%	.	-16%	8%	-1%	.	6%[46.1 µM]	?
O=c1c2ccccc2n(Cc2ccccc2Cl)c(=O)n1CCc1ccccc1	.	-5%	-24%	.	.	-3.0%	5%[46.1 µM]	?
CCC(CO)NCc1cc(OC)c(OCC(=O)NCCc2ccccc2)cc1Br (centres undefined)	9%	0%	-9%	4%	-11%	-1.9%	1%	5%
COc1cc(OC)c(C(=O)O/N=C(\N)c2ccccn2)cc1OC	-1%	.	57%[activator]	-3%	-1%	.	.	.
Cc1ccc(Sc2cnccc2C#N)cc1	3%	.	-14%	-6%	-1%	.	.	.
CC(=O)SC1CC(=O)C=C2CCC3C4CCC(=O)OC4(C)CCC3C21C (centres undefined)	.	.	-22%	.	10%	.	5%	-4%
CC/C(=N/Nc1ccccc1C)c1cnnc(SC)n1	-37%	-7%	-14%	-22%	-5%	-9.1%	-6%	0%
C=C1C(C(=O)Nc2ccc(OC)cc2)C1C(=O)Nc1ccc(OC)cc1 (centres undefined)	0%	.	-10%	1%	1%	.	-18%[46.1 µM]	-29%
CC(C)(CO)NCC(O)Cn1cc(C=O)c2ccccc21 (centres undefined)	-2%	.	-15%	.	0%	.	2%[46.1 µM]	14%
FC(F)(F)C1=NC(C(F)(F)F)=NP(N2CCOCC2)(N2CCOCC2)=N1	3%	?	-3%	1%	-2%	-1.9%	4%	-9%

High-throughput results (PubChem)
